Mtb hypoxia inh: inhibitors of hypoxia-regulated fluorescent reporter in Mycobacterium tuberculosis. M. tuberculosis hypoxia-regulated fluorescent reporter, fluorescence. fluorescence inhibition, % (concentration not given with the values). hit rate 0.1% among 300,000. AID 1159583;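 active = 35 to 45% if threefold the growth effect, above 45% if 1.5-fold the growth effect; inactive = the rest, general growth blockers included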;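 note: wells of about 50 µL received 100 nL stock; 0% = vehicle wells and 100% = reference inhibitor wells; whole bacteria with a GFP reporter of the hypoxia response; strong numbers were not always called active; many hits fall short of the cut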
Autofluor counter: flagged as autofluorescent in microsphere protease counterscreen; compound autofluorescence counterscreen, microsphere flow cytometry; active compounds read high; hit rate 3.1% among 360,000; fluorescence intensity (concentration not given with the values);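 active = at least 3 SD above the mean of all compounds, about 16000 in these data; inconclusive = too few beads counted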;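 note: 100 nL of 1 mM stock went into each well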
PrP UTR inh: suppresses PrP 5' UTR mRNA reporter expression | cell-based PrP 5' UTR mRNA reporter, plate reader | hit rate 0.35% among 340,000 | inhibition, % (test concentration not listed);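 active = every replicate at 50% or more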;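 note: 0 = median of the neutral control wells; tested in H4 reporter cells; numbers are from one replicate; inactives centre near -14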
BJeLR viability: BJeLR cell viability loss; BJeLR (HRASV12) viability, CellTiter-Glo ATP luminescence, 48 h; reference of the scale not given here; inhibition, % (test concentration not listed); hit rate 0.17% among 300,000; AID 1554;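 active = replicate mean above 50%; inconclusive = above 50% but judged a plate artefact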;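 note: 50 nL library stock added to about 25 µL; numbers are from one replicate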
ugtP null kill: kills S. aureus RN4220 lacking UgtP; S. aureus RN4220 ugtP deletion, OD600 growth, 16 h; some inactives read as strong as hits; growth inhibition, % (test concentration not listed); hit rate 0.54% among 330,000; AID 1259309;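 active = z-score under -3 and OD600 up to 0.15 on both plates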;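 note: plate controls were untreated wells for no effect and antibiotic for full effect; wells of about 80 µL received 100 nL stock; the first replicate is given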
RN4220 kill: S. aureus RN4220 growth inhibition; OD600, 16 h; inhibition, % (concentration not given with the values); hit rate 0.33% among 330,000; AID 1259311;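 active = z-score of -3 or lower and OD600 up to 0.18 on both plates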;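 note: plate controls were untreated cells for no effect and reference antibiotic for full effect; stock transfer was 100 nL into about 80 µL; one replicate is shown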
Mtb hypoxia inh growth: further read-out of Mtb hypoxia inh, marked with its call; growth inhibition, %; measured here: M. tuberculosis growth (absorbance);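 0% = vehicle and 100% = reference antibiotic; read after six days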
* marks the source's active call; other numbers are inactive results; ? = inconclusive; · = no result given; & = joins results of further samples.

Molecule	Mtb hypoxia inh	Mtb hypoxia inh growth	Autofluor counter	PrP UTR inh	BJeLR viability	ugtP null kill	RN4220 kill
O=C(Nc1ccc(Cl)cc1Cl)C1CCCO1 (stereo not drawn)	14	4	3681	-15	-3	5	7.7
CSc1nc2nc(C)c(C/C=C/c3ccccc3)c(=O)n2[nH]1	5	22	4659	-16	-6	3	4.2
O=C(COc1ccc(F)cc1Br)NCc1ccccn1	8	1	3833	-36	-2	-1	6.0
COc1cccc(C(=O)/C=C/Nc2ccc(NC(C)=O)cc2)c1	9	1	2066	-92	6	1	3.6
Cn1c(CNC(=O)c2ccco2)nnc1SCC(=O)Nc1ccccc1Cl	0	1	?	-7	-12	2	-0.3
O=C(COC(=O)c1c[nH]c2ccccc12)Nc1cccc(F)c1	-2	-5	6486	0	·	-16	-1.7
Cc1ccc(N2CC3=C(C2=O)C(c2ccccc2)NC(=O)N3C)cc1 (stereo not drawn)	·	·	2711	-11	2	-6	0.3
CC(C)CCNc1nnnc2c1sc1nc(N3CCOCC3)c3c(c12)CC(C)(C)SC3	-3	10	3759	-4	4	-18	18
COc1ccc(CCNc2cc(C)nc3c(-c4ccc(Cl)cc4)c(C)nn23)cc1OC	24	21	2473	-8	1	18	-2.6
COc1cc(-c2nc3ccccc3c(=O)n2N)cc(OC)c1OC	0	4	2104	-52	-5	-2	4.9
N#CCCN1CCN(C(CNS(=O)(=O)c2ccc(Cl)cc2)c2ccccc2)CC1 (stereo not drawn)	14	3	2448	-60	1	5	-0.6
Cc1cccc(OCCOCCSc2ncccn2)c1	16	16	2858	-18	6	5	-2.5
CN(C)CCCNC(NC(=O)/C=C/c1ccccc1)C(Cl)(Cl)Cl (stereo not drawn)	11	11	5543	-15	0	1	1.5
CCC(=O)N1CCc2cc(S(=O)(=O)NC(C(=O)N3CCc4ccccc4C3)C(C)C)ccc21 (stereo not drawn)	9	10	11521	-15	·	-5	10
O=C(CN1CCCC1)Nc1cc(C(F)(F)F)cc(C(F)(F)F)c1	6	12	4666	-20	1	1	2.4
COc1cc(C(=O)N/N=C/c2ccc(OC)c(CN3CCN(c4ccc(F)cc4)CC3)c2)ccc1O	·	·	5952	-22	-1	·	·
COC(=O)COc1ccc(S(=O)(=O)N2CCN(c3ccc(OC)cc3)CC2)cc1	-9	4	4724	-11	-5	-2	-1.5
Cc1ccccc1C(=O)Nc1nnc(-c2ccncc2)o1	12	11	3983	-9	-7	5	2.5
CCCCCCN1CC(O)=C(c2ccccc2)C1=N	·	·	2494	-2	-14	0	17
COc1cccc(N/C=C(\C#N)c2ccc(OCCCF)cc2)c1	·	·	4557	-40	0	0	3.5
COc1cc([N+](=O)[O-])cc(C=NNC(=O)Cn2nccc2C)c1O	11	7	·	·	·	0	7.5
CC(=NNC(=O)c1ccc2c(c1)OCO2)c1ccc(NS(C)(=O)=O)cc1	-5	0	·	·	·	5	2.2
O=C(CNC(=O)c1ccncc1)N/N=C/c1cc(Br)ccc1O	·	·	4424	-23	6	·	·
CC12CC1(C)C(=O)N(c1cc(Cl)cc(Cl)c1)C2=O (stereo not drawn)	-4	-3	3127	-9	·	-4	-2.7
COc1ccccc1NC(=O)Nc1nc(CC(=O)N2CCN(c3ccccc3OC)CC2)cs1	1	3	?	-10	-3	-2	2.3
COc1ccc(CCCc2n[nH]c(=S)o2)c(C)c1	7	2	2142	-14	6	7	2.8
COc1ccc(CCNC(=O)[C@@H](NC(=O)N2CC(=O)Nc3ccccc32)C(C)C)cc1OC	11	-2	5224	-14	3	11	3.9
Cc1cccc(NS(=O)(=O)c2ccc(C(=O)NCC3CCCO3)cc2)c1C (stereo not drawn)	11	9	5883	-5	2	-1	1.8
C=CCNC(=O)CN1CCC(O)(c2ccccc2)CC1	13	10	12789	-27	2	6	1.5
COc1ccccc1NC(=O)Nc1ccnn1C1CCN(C(=O)c2cscn2)CC1	4	5	5526	-18	-2	-2	1.8
CCOC(=O)c1[nH]ncc1CN1CCCC(C(=O)c2ccc(SC)cc2)C1 (stereo not drawn)	10	12	2111	-14	9	10	4.1
CCn1c(SCc2nc(-c3ccccc3)no2)nnc1-c1ccco1	8	15	23800*	4	-1	-2	17
N#CC1=C(SCC(N)=O)NC2=C(C(=O)c3ccccc32)C1c1ccc(Cl)cc1 (stereo not drawn)	7	7	9588	-11	3	-12	0.0
CCCCN1C=C(C(=O)c2ccccc2)C(=O)CC1	-3	-7	2885	4	·	7	1.3
CCOc1ccc(NC(=O)CNC(=O)c2ccco2)cc1	-1	-1	3092	-20	-2	12	0.1
Cc1ccccc1OCCC(=O)OCC(=O)Nc1c(F)cccc1F	2	-10	6020	-28	-13	7	4.3
COc1ccc2c(c1)-c1ccccc1S(=O)(=O)N2C	1	14	5720	-11	4	-2	0.3
COC(=O)C(N)Cc1ccc(O)c(O)c1 (stereo not drawn)	12&12	-7&-1	2865	-17	3	-2&-6	10&3.6
CC(O)=C(C#N)c1nc2ccccc2[nH]1	-10	-3	·	·	·	-6&-5	8.9&1.8
O=[N+]([O-])c1nn(-c2ccc(Cl)cc2)n(O)c1=NCc1ccncc1	·	·	4118	·	-12	46	28
CCOC(=O)CNC(=S)N1CC2C[C@@H](C1)Cn1c2cccc1=O	-9	4	4675	-19	4	-1	1.0
CCOc1cc(N2CCOCC2)c(OCC)cc1NC(=O)COC(=O)[C@H](Cc1c[nH]c2ccccc12)NC(C)=O	4	2	2405	-7	2	-2	-7.0
Cc1cccn2c(NC(=O)c3cccs3)c(-c3ccccc3)nc12	13	6	2536	-10	-8	12	7.7
COC(=O)C1CCN(C(=O)CC(NC(=O)C(F)(F)F)c2cccs2)CC1 (stereo not drawn)	-12	0	3893	-30	-3	8	3.5
O=C(O)CSCC(=O)Nc1ccccc1SCCS(=O)(=O)c1ccc(Cl)cc1	1	-3	4608	-12	5	0	3.0
O=C(Cn1c(-c2cscn2)nc2ccccc21)Nc1cc(F)ccc1F	4	-2	8164	-28	0	9	6.9
O=C(CN1C(=O)S/C(=C\C=C\c2ccccc2)C1=O)Nc1ccc(C(=O)O)cc1	11	-1	3277	-10	1	10	4.7
O=C(NCc1ccco1)c1cc(Cl)nc(Cl)c1	5	-5	3196	12	-10	-25	3.6
COC(=O)c1cccc(NC(=O)CCc2ccccc2)c1	13	3	1964	-28	8	0	4.1
O=C(CSc1nncc2ccccc12)Nc1ccccc1	1	-5	3148	-17	-2	10	8.0
Oc1ccc2c(c1)c1ccccc1c1ncccc21	4	5	3660	-9	·	27	14
COc1ccc([N+](=O)[O-])cc1NC(=O)CSc1nccc(C)n1	-5	-5	2284	-11	0	15	-1.7
COc1ccc(OC)c(S(=O)(=O)NC2CCCCNC2=O)c1 (stereo not drawn)	5	11	4039	-14	1	3	3.5
COc1cc(OC)cc(C(=O)N2CCN(C(=O)c3cccnc3)CC2)c1	6	4	3509	-13	-10	5	2.5
COC(=O)C1=C(C)N(Cc2ccccc2)C(=S)NC1c1cccc(C(F)(F)F)c1 (stereo not drawn)	-1	2	·	·	·	6	-9.8
CCCCCCNCC(=O)N1CCC(Cc2ccccc2)CC1	5	10	5416	-14	4	-5	0.8
O=C(CSc1nccn1Cc1ccc(F)cc1)Nc1ccc(F)cc1F	12	0	4321	-4	2	13	-1.9
CC(C)c1ccc(C=NNC(=O)c2c(Cl)cnn2C)cc1	9	2	·	·	·	4	-1.0
Cc1ccc(C)c(S(=O)(=O)Nc2ccccc2C(=O)Nc2ccccc2N2CCOCC2)c1	·	·	4704	-16	3	17	-0.8
CCc1ccc(NC(=S)N(Cc2ccc(Cl)cc2)Cc2ccc(C(=O)O)cc2)cc1	-7	3	3933	-12	0	-6	10

Later entries
Molecule	Mtb hypoxia inh	Mtb hypoxia inh growth	Autofluor counter	PrP UTR inh	BJeLR viability	ugtP null kill	RN4220 kill
CCNC(=S)N=Nc1c(O)[nH]c2ccc(C(C)C)cc12	1	0	2418	5	12	-20	-0.1
COc1ccccc1NC(=S)NNC(=O)c1cc(C)nn1C	·	·	4911	-19	-9	-6	-2.9
CCC(=O)NCc1csc(-c2cccs2)n1	-12	-14	3814	1	-17	3	3.7
O=S(=O)(c1ccc(F)cc1)N1CCN(c2nc(-c3ccc(F)cc3)cs2)CC1	7	14	13404	-28	2	67	82
COc1ccc(-c2cc(C(F)(F)F)nc(SCC(=O)NCc3cccs3)n2)cc1	9	5	10987	·	-10	-18	15
COc1ccc(Cn2nnnc2C(c2cccs2)N2CCN(c3ccccc3)CC2)cc1 (stereo not drawn)	5	4	5286	-15	-5	-3	6.2
O=C(CC(=O)N/N=C\c1ccccc1[N+](=O)[O-])NCCc1ccccc1	·	·	3647	-18	-3	·	·
COc1cc(S(=O)(=O)N2CCCCC2)ccc1NC(=O)/C=C/c1ccccc1	10	6	11527	-18	-10	-8	4.1
Cc1c(C=NNC(=O)C2COc3ccccc3O2)c2ccccc2n1C (stereo not drawn)	9	7	·	·	·	-12	1.6
CCOc1c2ccc(C(=O)NCc3ccc(C(F)(F)F)cc3C(F)(F)F)cc2nn1C	5	10	3886	-50	16	1	-8.5
Nc1nnc(SCC(=O)NC2CCCC2)s1	7	2	4973	-15	-1	1	2.0
Cc1ccccc1OCC(=O)NC1CCCCCCC1	·	·	3309	-12	-2	5	2.5
COc1ccc(N2CCN(C(=O)c3ccc(NS(=O)(=O)c4cccs4)cc3)CC2)cc1	-9	-1	4267	-65	-2	12	-7.9
O=C(COC(=O)c1cccnc1SC(F)F)NC1CC1	10	0	4826	·	·	6	5.3
CCn1nnc(C(=O)O)c1C(=O)O	3	2	16922*	-2	2	4	0.6
NS(=O)(=O)c1ccc(NC(=O)COC(=O)CCc2ccc(S(=O)(=O)N3CCOCC3)cc2)cc1	-4	4	3474	-21	12	19	3.9
O=C(N/N=C/c1cccc(Oc2ccccc2)c1)c1ccccc1F	·	·	?	-10	-4	·	·
Cc1cccc(NC(=O)CSCC(=O)Nc2ccc(S(=O)(=O)N3CCCC3)cc2)c1	6	10	4654	-10	2	6	2.2
Cc1cc(NC(=O)c2cc(-c3cccs3)nc3ccccc23)no1	3	1	5612	-11	4	-4	-7.8
CCN(CC)CCN(C(=O)c1c(F)cccc1F)c1nc2cc(C)cc(C)c2s1	5	17	·	-10	0	16	-2.2
O=C(Nc1ccnn1C1CCN(Cc2cccnc2)CC1)c1ccccc1Cl	10	-10	5546	-13	-11	4	3.6
Oc1[nH]c(=S)sc1C=C1N=c2ccccc2=N1	5	13	3873	-30	-2	0	17
N#Cc1c(NC(=O)CN2CCN(S(=O)(=O)c3ccc4c(c3)OCCO4)CC2)sc2c1CCC2	·	·	3154	6	4	2	9.2
O=S(=O)(NC1CCCCC1)c1ccc(-c2csnn2)s1	·	·	4743	-37	5	2	5.3
CC1(C)Cc2ccccc2C(=NCCCC(=O)O)N1	16	2	7536	-26	2	5	-0.3
CCOC(=O)C1CCCN(c2cc(C)nc3cc(-c4ccc(F)cc4)nn23)C1 (stereo not drawn)	4	6	9277	0	1	-10	1.0
CC1CCN(c2c(NCc3ccc(C(=O)NCc4cccnc4)cc3)c(=O)c2=O)CC1	13	5	5563	2	-2	14	1.1
Cc1ccc(NC(=O)[C@H](C)NC(=O)C2CCN(C(=O)[C@@H](N)C(C)C)CC2)cc1	-3	-4	3287	17	-4	1	0.9
